Screening data (PubChem)
Autofluor counter = flagged as autofluorescent in microsphere protease counterscreen | fluorescence intensity (concentration not given with the values) | compound autofluorescence counterscreen, microsphere flow cytometry; active compounds read high | 360,000 tested, 3.1% active | AID 624483;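 active = at least 3 SD above the mean of all compounds, about 16000 in these data; inconclusive = too few beads counted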;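 note: 100 nL of 1 mM stock went into each well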
Mtb hypoxia rep = reduces hypoxia-regulated biosensor signal in M. tuberculosis; M. tuberculosis hypoxia-regulated fluorescent reporter, fluorescence; fluorescence inhibition, % (no concentration beside the values); 300,000 tested, 0.1% active;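 active = 35 to 45% if threefold the growth effect, above 45% if 1.5-fold the growth effect; inactive = the rest, general growth blockers included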;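 note: wells of about 50 µL received 100 nL stock; 0% = vehicle wells and 100% = reference inhibitor wells; whole bacteria with a GFP reporter of the hypoxia response; strong numbers were not always called active; many hits fall short of the cut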
ugtP null kill = growth inhibition of S. aureus ugtP deletion strain | 330,000 tested, 0.54% active | AID 1259309 | S. aureus RN4220 ugtP deletion, OD600 growth, 16 h; some inactives read as strong as hits | growth inhibition, % (no concentration beside the values);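 active = z-score under -3 and OD600 up to 0.15 on both plates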;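 note: plate controls were untreated wells for no effect and antibiotic for full effect; wells of about 80 µL received 100 nL stock; the first replicate is given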
PrP 5UTR inh = suppresses PrP 5' UTR mRNA reporter expression; cell-based PrP 5' UTR mRNA reporter, plate reader; 340,000 tested, 0.35% active; inhibition, % (concentration not given with the values);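 active = every replicate at 50% or more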;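 note: 0 = median of the neutral control wells; tested in H4 reporter cells; numbers are from one replicate; inactives centre near -14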
BJeLR lethal = kills HRASV12-expressing BJeLR cells. 300,000 tested, 0.17% active. AID 1554. inhibition, % (test concentration not listed). BJeLR (HRASV12) viability, CellTiter-Glo ATP luminescence, 48 h; reference of the scale not given here;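 active = replicate mean above 50%; inconclusive = above 50% but judged a plate artefact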;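 note: 50 nL library stock added to about 25 µL; numbers are from one replicate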
Sa RN4220 lethal = S. aureus RN4220 growth inhibition | AID 1259311 | OD600, 16 h | 330,000 tested, 0.33% active | inhibition, % (test concentration not listed);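 active = z-score of -3 or lower and OD600 up to 0.18 on both plates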;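 note: plate controls were untreated cells for no effect and reference antibiotic for full effect; stock transfer was 100 nL into about 80 µL; one replicate is shown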
Mtb hypoxia rep growth = also measured in Mtb hypoxia rep; calls as there; growth inhibition, %; measured here: M. tuberculosis growth (absorbance);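 0% = vehicle and 100% = reference antibiotic; read after six days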
* marks the source's active call; other numbers are inactive results; ? = inconclusive; · = not tested or not shown.

(1) Cc1c(C(=O)OCc2ccc(F)cc2)sc2nc3n(c(=O)c12)CCC3
(2) Cc1cc(OCC(=O)OCC(=O)N2CC(C)CC(C)C2)ccc1Cl (centres undefined)
(3) S=C(NCc1ccc(Cl)cc1)N1CCN(c2ccccn2)CC1
(4) O=C(COC(=O)c1cccnc1Cl)Nc1ccccc1OC(F)F
(5) CCN1CCN(C(=O)c2cc3c(OC)c(OC)c(OC)cc3[nH]2)CC1
(6) CCC1CCCCN1C(=O)/C=C/c1ccc2c(c1)OCO2 (centres undefined)
(7) COC(=O)CCc1sc(NC2CCCCC2)nc1-c1ccc(OC)cc1
(8) CN(C1CCCCC1)S(=O)(=O)c1ccc(Cl)c(C(=O)O)c1
(9) CC(C)C(=O)NC(NCC1CCCO1)C(Cl)(Cl)Cl (centres undefined)
(10) CCNc1nc(SCCOc2ccc(Br)cc2)nc(N(C)C)n1

Assay by compound | 1 | 2 | 3 | 4 | 5 | 6 | 7 | 8 | 9 | 10
Autofluor counter | 4458 | 4986 | 3190 | 2567 | 3586 | 5522 | 2558 | 4219 | 3084 | 2187
Mtb hypoxia rep | 1 | -1 | -2 | 3 | 7 | -1 | -1 | 3 | 3 | -1
Mtb hypoxia rep growth | -6 | 9 | 7 | 12 | 5 | 8 | -4 | 6 | -2 | -1
ugtP null kill | 13 | 3 | 6 | 1 | 1 | 1 | 17 | 2 | 4 | 68
PrP 5UTR inh | -12 | -22 | -10 | -23 | -18 | -20 | -13 | -4 | -10 | -14
BJeLR lethal | -1 | · | 0 | -6 | 0 | -4 | -20 | 0 | 5 | -11
Sa RN4220 lethal | 7.5 | 7.1 | -1.9 | 5.2 | 1.7 | 3.4 | 8.4 | 0.3 | 6.8 | -2.6

(11) CC(C)NC(=O)N(C)CC1Oc2ccc(NS(=O)(=O)c3ccc(F)cc3)cc2C(=O)N(C(C)CO)CC1C (centres undefined)
(12) CC(C)(C)n1ncc2c(=O)n(CC(=O)NC3CCCCC3)cnc21
(13) O=C(NCCNC(=O)c1ccccn1)c1cccc(F)c1
(14) CCc1ccc(CNC(=O)Cc2ccc(NC(=O)C3=C(C)OCCS3)cc2)cc1
(15) COc1cc(/C=C/C(=O)OCC(=O)NC2CCS(=O)(=O)C2)ccc1OC(F)F (centres undefined)
(16) COC(=O)c1cc(-c2cccs2)nn1-c1ccccc1
(17) CCOC(=O)c1c(C)nn(-c2ccc(NC(=O)/C=C/C(=O)O)cc2)c1C
(18) COc1ccc(/C=C/C(=O)Nc2cccc(F)c2)cc1S(=O)(=O)N1CCOCC1
(19) O=C1CN(C(=O)N[C@@H](Cc2ccccc2)C(=O)N[C@H](Cc2ccccc2)C(=O)O)c2ccccc2N1
(20) COc1ccc(C2(CNC(=O)c3ccco3)CCOCC2)cc1

Assay by compound | 11 | 12 | 13 | 14 | 15 | 16 | 17 | 18 | 19 | 20
Autofluor counter | · | 3203 | 3492 | 5842 | 3624 | 4334 | 4588 | 4403 | 5533 | 4383
Mtb hypoxia rep | 9 | 10 | -6 | · | 3 | -11 | 6 | 4 | · | 1
Mtb hypoxia rep growth | 11 | 10 | -13 | · | 4 | 0 | 6 | -2 | · | 1
ugtP null kill | -5 | 0 | 5 | · | 12 | 8 | 12 | -1 | 0 | 1
PrP 5UTR inh | · | -50 | -19 | 12 | -12 | -15 | 3 | -15 | -18 | -17
BJeLR lethal | · | -1 | 5 | 53* | · | -2 | 4 | -17 | 3 | 1
Sa RN4220 lethal | 2.5 | 1.4 | -1.9 | · | 4.6 | 1.8 | 5.1 | -0.2 | 1.5 | 5.3

(21) Cc1ccc(NC(=O)COC(=O)c2cccnc2Cl)cc1S(=O)(=O)N1CCOCC1
(22) Nc1nonc1-n1nnc(C(=O)NN=Cc2ccc(Br)cc2)c1-c1ccc2c(c1)OCO2
(23) CCC(C)C1CNC(=S)N1CCc1cc(C(F)(F)F)cc(C(F)(F)F)c1 (centres undefined)
(24) O=C(c1cc(-c2ccccc2)nn1CC1CC(c2cccnc2)=NO1)N1CCOCC1 (centres undefined)
(25) N=C1C(c2ccccc2)=C(O)CN1c1cccc(O)c1
(26) CC(=O)N(c1cccc(C)c1)S(=O)(=O)c1ccc(Cl)cc1
(27) O=C(c1ccc(F)cc1)N1C2CCC1CC(O)(c1ccccc1F)C2 (centres undefined)
(28) O=C(Nc1cccnc1)c1ccc(NC(=O)c2ccco2)cc1
(29) O=S1(=O)N=C(N/N=C/c2cccs2)c2ccccc21
(30) CN1C(=O)C(=Cc2ccccc2OCc2ccccc2Cl)C(=O)N(C)C1=O

Assay by compound | 21 | 22 | 23 | 24 | 25 | 26 | 27 | 28 | 29 | 30
Autofluor counter | 3071 | · | · | 2861 | 2492 | 4648 | 4432 | 4621 | 3672 | 2491
Mtb hypoxia rep | -1 | -1 | -7 | 7 | 6 | -8 | · | · | · | -3
Mtb hypoxia rep growth | 2 | -3 | 0 | 6 | 3 | 13 | · | · | · | -5
ugtP null kill | 6 | 16 | -2 | -6 | 4 | -6 | 3 | -2 | · | 9
PrP 5UTR inh | -9 | · | · | 3 | -19 | -13 | 6 | -14 | -5 | -7
BJeLR lethal | · | · | · | -10 | -3 | -2 | -2 | 0 | 3 | -3
Sa RN4220 lethal | 5.6 | -12 | -7.3 | 7.6 | 2.0 | 4.9 | -1.1 | -1.5 | · | 8.8

(31) Cc1ccc(Nc2nc(N)c([N+](=O)[O-])c(NCc3ccccc3)n2)cc1
(32) O=[N+]([O-])c1ccc(O)c(C=NNc2ccc(S(=O)(=O)O)cc2)c1
(33) Cc1ccnc(NC(=O)CN2C(=O)c3ccccc3S2(=O)=O)c1
(34) Clc1ccc(C2C3CN(Cc4cccnc4)C(c4ccccc4)C34CC2(c2cccnc2)C4)cn1 (centres undefined)
(35) CC(=NCCc1ccccc1)c1c(O)n(C)c(=O)n(C)c1=O
(36) O=C(CCC(=O)N1CCN(c2ccccc2F)CC1)c1ccc(Cl)s1
(37) C/C(=N/Nc1ccc([N+](=O)[O-])cc1)c1c[nH]c2ccccc12
(38) COc1ccc(N2CC(C(=O)Nc3ccc(S(=O)(=O)N4CCCC4)cc3)CC2=O)cc1 (centres undefined)
(39) CCOC(=O)CC1c2ccccc2S(=O)(=O)N1Cc1cccc(C(F)(F)F)c1 (centres undefined)
(40) Cc1ccc(S(=O)(=O)Nc2nc3ccc(N)cc3s2)cc1

Assay by compound | 31 | 32 | 33 | 34 | 35 | 36 | 37 | 38 | 39 | 40
Autofluor counter | · | 3704 | 5640 | · | 4639 | 7109 | 4973 | 4467 | · | 3493
Mtb hypoxia rep | -1 | 15 | 1 | -6 | 1 | 1 | · | 18 | -1 | -10
Mtb hypoxia rep growth | 3 | 13 | 1 | 13 | 13 | -2 | · | 0 | -1 | 8
ugtP null kill | -16 | 72 | 9 | 10 | 4 | -2 | · | -3 | -16 | 84*
PrP 5UTR inh | -30 | -4 | -15 | · | -3 | 3 | -37 | -15 | · | -8
BJeLR lethal | 3 | · | 5 | · | 11 | · | 10 | 5 | · | -3
Sa RN4220 lethal | -8.5 | 89* | 3.0 | 4.4 | 3.5 | 1.5 | · | 2.2 | -0.7 | 9.2

Record cards, from the list above.
`CC(=NCCc1ccccc1)c1c(O)n(C)c(=O)n(C)c1=O` as listed: Autofluor counter = 4639; Mtb hypoxia rep = 1; Mtb hypoxia rep growth = 13; ugtP null kill = 4; PrP 5UTR inh = -3; BJeLR lethal = 11; Sa RN4220 lethal = 3.5
`Cc1c(C(=O)OCc2ccc(F)cc2)sc2nc3n(c(=O)c12)CCC3` as listed: Autofluor counter = 4458; Mtb hypoxia rep = 1; Mtb hypoxia rep growth = -6; ugtP null kill = 13; PrP 5UTR inh = -12; BJeLR lethal = -1; Sa RN4220 lethal = 7.5

Additional structures
(41) O=C1CN(S(=O)(=O)c2ccccc2Cl)CCN1
(42) CCc1nnc(NS(=O)(=O)c2ccc(N3C(=O)C4CC=C(Cl)CC4C3=O)cc2)s1 (centres undefined)
(43) CC(C)N(Cc1ccccc1)C(=O)Cn1c(=O)cnc2ccccc21
(44) NC(=O)C1CCN(C(=S)NCc2ccc3c(c2)OCO3)CC1
(45) O=C(NC1(C(F)(F)F)N=C(c2ccccc2)NC1=O)c1ccccc1F (centres undefined)
(46) OC(COc1ccc(Cl)cc1)CN1CCN(c2ccccn2)CC1 (centres undefined)
(47) Cc1noc(/C=C/N(C)C)c1S(=O)(=O)N1CCCC(C(=O)NCc2cccs2)C1 (centres undefined)
(48) CCOC(=O)CC(NC(=O)c1cc2cccc(OC)c2oc1=O)c1cccc([N+](=O)[O-])c1 (centres undefined)
(49) CCOC(=O)C1CCN(C(=O)C2CCN(S(=O)(=O)N3CCC4(CC3)OCCO4)CC2)CC1
(50) COc1ccc(N2CCN(C(c3ccccc3OC)c3nnnn3C3CCCC3)CC2)cc1 (centres undefined)

Assay by compound | 41 | 42 | 43 | 44 | 45 | 46 | 47 | 48 | 49 | 50
Autofluor counter | 6144 | ? | 4080 | 2084 | 2619 | 4034 | 5289 | 9639 | 5771 | 4069
Mtb hypoxia rep | -2 | 1 | 10 | 5 | -8 | 6 | -3 | · | 0 | ·
Mtb hypoxia rep growth | -8 | 11 | 9 | -1 | -5 | 13 | 1 | · | 1 | ·
ugtP null kill | 7 | -11 | -1 | -1 | 4 | 9 | -4 | · | 3 | 0
PrP 5UTR inh | -8 | -23 | -15 | -5 | -13 | -23 | -4 | 1 | -8 | -2
BJeLR lethal | · | -1 | 7 | 4 | -9 | 11 | -7 | -9 | -12 | 4
Sa RN4220 lethal | 9.0 | 4.6 | 2.9 | 4.3 | 2.6 | 0.6 | -13 | · | 3.3 | 7.2

(51) CCOC(=O)N1CCN(C(=O)CCSc2ccc(Cl)cc2)CC1
(52) Cc1c(C)c2ccc(O)c(CN3CCN(C)CC3)c2oc1=O
(53) COC1CCCN(Cc2nc(Cc3ccccc3F)no2)C1 (centres undefined)
(54) Cc1cc(OC(C(=O)O)c2ccccc2)c2c(C)c(Cc3ccccc3)c(=O)oc2c1 (centres undefined)
(55) CCN(CC)C(=O)COc1ccc2c(-c3ccccc3)cc(=O)oc2c1
(56) O=S(=O)(Nc1ccc(N2CCCCC2)cc1)c1ccc(F)c(F)c1
(57) O=C(c1ccc(NS(=O)(=O)c2cccc(F)c2)cc1)N1CCCC1
(58) Cn1c(N2CCOCC2)nc2c1c(=O)n(Cc1ccc(Cl)cc1)c(=O)n2C
(59) COCCOc1ccc(C(F)(F)F)cc1NC(=O)c1ccccc1F
(60) Cc1ccn2cc(CCNC(=O)Cc3cccs3)nc2c1

Assay by compound | 51 | 52 | 53 | 54 | 55 | 56 | 57 | 58 | 59 | 60
Autofluor counter | 10074 | 3905 | 4207 | · | 3635 | 2699 | 6484 | 8905 | 2083 | 5219
Mtb hypoxia rep | 10 | -6 | 19 | 2 | 2 | -2 | · | 6 | 1 | -8
Mtb hypoxia rep growth | 4 | -3 | 15 | 1 | -6 | 1 | · | 7 | -1 | -13
ugtP null kill | 5 | 2 | 6 | 9 | 8 | -6 | · | -1 | -3 | -3
PrP 5UTR inh | -10 | -24 | -10 | -22 | 2 | -11 | -13 | -18 | -15 | -30
BJeLR lethal | -1 | -10 | -1 | 6 | -2 | -7 | 7 | 1 | 2 | 0
Sa RN4220 lethal | 3.8 | -0.4 | 4.6 | 1.7 | -6.5 | 0.9 | · | 1.8 | 6.0 | 2.8

Values by screen from above.
BJeLR lethal, entries 29–40, in order: 3, -3, 3, ·, 5, ·, 11, ·, 10, 5, ·, -3
Autofluor counter, entries 29–40, in order: 3672, 2491, ·, 3704, 5640, ·, 4639, 7109, 4973, 4467, ·, 3493
Mtb hypoxia rep, entries 29–40, in order: ·, -3, -1, 15, 1, -6, 1, 1, ·, 18, -1, -10

Next part
(61) CC(=O)C1C(c2ccc(F)cc2)NC(=O)NC1(O)C(F)(F)F (centres undefined)
(62) COC(=O)CNc1nc(-c2cccnc2)nc2ccccc12
(63) Cc1ccc(-c2nnc(Nc3ccc(CC(N)=O)cc3)c3ccccc23)cc1S(=O)(=O)NCCO
(64) COc1ccc(-c2nc(CS(=O)CC(=O)NCc3ccco3)c(C)o2)cc1OC (centres undefined)

Assay by compound | 61 | 62 | 63 | 64
Autofluor counter | 2503 | 3733 | 2852 | 6090
Mtb hypoxia rep | 9 | · | -4 | -5
Mtb hypoxia rep growth | 3 | · | -3 | 5
ugtP null kill | 8 | -3 | 3 | -6
PrP 5UTR inh | -24 | -18 | -14 | -2
BJeLR lethal | 17 | · | -5 | 7
Sa RN4220 lethal | 1.4 | -3.3 | 2.9 | -0.8
